High-throughput results: PubChem BioAssay, Broad Institute
HIV Env fusion: blocks HIV Env-driven cell-cell fusion | HeLa-JRFL Env/CEM21 cell fusion, luciferase | inhibition, % at 12.3 µM | actives 1.1% (n = 360,000);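 active = mean replicate inhibition score of at least 50 and every replicate individually at or above 50; inconclusive = only one of the two criteria met; inactive = mean below 50 and not all replicates reaching 50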;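 also: 0% = plate neutral controls and 100% = maraviroc near 300 nM; one replicate is shown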
The depositor's hits bear a star; ? = inconclusive; [ ] = dose if it differs, or a comment. These rows are one share of the data. The share of hits here may be higher or lower than overall.

COc1ccc2c3c(n(C)c2c1)[C@@H](CO)N(C(=O)Cc1ccccc1)CC31CCN(C(=O)Cc2ccccc2)CC1
  HIV Env fusion = 20[16.7 µM]
Cn1cnc(CCNC(=O)C[C@@H]2CC[C@@H]3[C@H](COC[C@@H](O)CN3C(=O)Nc3ccc(C(F)(F)F)cc3)O2)c1
  HIV Env fusion = 3[16.7 µM]
O=C(NCc1ccccc1)[C@H]1CCCN1C(=O)[C@H]1CCCN1C(=O)c1ccc(F)cc1
  HIV Env fusion = -18
COC(=O)C1=C(C)N(Cc2ccccc2C(F)(F)F)C(=NCc2ccc(OC)cc2)NC1c1ccccc1C(F)(F)F (stereo unspecified)
  HIV Env fusion = ?
C[C@H](CO)N1C[C@H](C)[C@H](CN(C)C(=O)C2CC2)Oc2cc(C3=CCCC3)ccc2S1(=O)=O
  HIV Env fusion = 3[16.7 µM]
Cc1ccccc1-c1cnc2c(c1)C(=O)N([C@H](C)CO)C[C@@H](C)[C@H](CN(C)Cc1cncnc1)O2
  HIV Env fusion = 12[16.7 µM]
CNC[C@H]1OCCCC[C@@H](C)Oc2ccc(NS(=O)(=O)c3ccc(OC)cc3)cc2C(=O)N([C@@H](C)CO)C[C@@H]1C
  HIV Env fusion = -14[16.7 µM]
CCCC(=O)Nc1ccc2c(c1)C(=O)N(C)C[C@H](OC)[C@H](C)CN(CC1CCCC1)[C@@H](C)CO2
  HIV Env fusion = 12[16.7 µM]
C#CCNC(=O)C1=C[C@@H](C(C)(C)C)C[C@@H](OCCCCO)O1
  HIV Env fusion = 14[16.7 µM]
C[C@H](CO)N1C[C@H](C)[C@H](CN(C)Cc2ccc(-c3ccccc3)cc2)Oc2ccc(NC(=O)CCN3CCOCC3)cc2CC1=O
  HIV Env fusion = -30[16.7 µM]
C[C@@H]1CN([C@@H](C)CO)C(=O)c2cc(-c3ccc(F)cc3)cnc2O[C@H]1CN(C)C(=O)c1ccncc1
  HIV Env fusion = 4[16.7 µM]
CCCNC(=O)Nc1ccc2c(c1)OC[C@H](C)N(C(C)=O)C[C@H](C)[C@H](OC)CN(C)C2=O
  HIV Env fusion = 4[16.7 µM]
C[C@@H]1CN([C@H](C)CO)C(=O)c2cccc(NC(=O)c3cnccn3)c2O[C@H]1CN(C)S(=O)(=O)c1ccccc1
  HIV Env fusion = 8[16.7 µM]
COc1cccc(CNC(=O)[C@H]2CCCN2C(=O)[C@H]2CCCN2C(=O)c2ccccc2)c1
  HIV Env fusion = 3
O=C(C[C@@H]1CC[C@H]2NC[C@@H](O)COC[C@@H]2O1)NCCc1ccncc1
  HIV Env fusion = 13[16.7 µM]

A second format for some results above:
molecule	HIV Env fusion
CCCC(=O)Nc1ccc2c(c1)C(=O)N(C)C[C@H](OC)[C@H](C)CN(CC1CCCC1)[C@@H](C)CO2	12[16.7 µM]
C#CCNC(=O)C1=C[C@@H](C(C)(C)C)C[C@@H](OCCCCO)O1	14[16.7 µM]
C[C@H](CO)N1C[C@H](C)[C@H](CN(C)Cc2ccc(-c3ccccc3)cc2)Oc2ccc(NC(=O)CCN3CCOCC3)cc2CC1=O	-30[16.7 µM]

The list goes on.
C[C@H]1CN([C@@H](C)CO)C(=O)Cc2cc(N(C)C)ccc2O[C@H]1CN(C)Cc1ccc(C(=O)O)cc1
  HIV Env fusion = -19[16.7 µM]
COc1cccc(C(=O)N[C@H](C(=O)N2CCC[C@H]2C(=O)NC2CCCC2)C2CCCCC2)c1
  HIV Env fusion = -6
CN(C)c1ccc2c(c1)[C@@H]1C[C@@H](CC(=O)NCc3ccccn3)O[C@H](CO)[C@@H]1O2
  HIV Env fusion = 6[16.7 µM]
c1cncc(Oc2ccc(NCCc3c[nH]c4ccccc34)cc2)c1
  HIV Env fusion = -4
C#Cc1ccc([C@H]2C=C(C(=O)N3CCCCCCC3)O[C@@H](OCC)[C@@H]2CCCO)cc1
  HIV Env fusion = 0[16.7 µM]
CO[C@H]1CC[C@@H]2CCN(C)C(=O)[C@@H](C)CN(C)C(=O)c3cc(C#N)ccc3OC[C@H]1O2
  HIV Env fusion = -6[16.7 µM]
COCC(=O)N1[C@@H]2c3ccc(C4=CCCCC4)c(=O)n3C[C@@H]2[C@@H](CO)[C@@H]1C(=O)N1CCOCC1
  HIV Env fusion = -5[16.7 µM]
C/C=C/c1cnc2c(c1)C(=O)N([C@H](C)CO)C[C@H](C)[C@@H](CN(C)C(=O)Nc1ccc(F)cc1)O2
  HIV Env fusion = -9[16.7 µM]
COc1ccc(C#Cc2cccc(-c3nc(C(=O)O)cc4c3[C@@H](CCO)N(S(=O)C(C)(C)C)C4)c2)cc1OC (stereo partly specified)
  HIV Env fusion = 10[16.7 µM]
CNC[C@H]1Oc2c(NC(=O)NC(C)C)cccc2C(=O)N([C@H](C)CO)C[C@H]1C
  HIV Env fusion = -2[16.7 µM]
COC(=O)[C@]12C[C@H](CC(=O)N3CCSCC3)C(=O)N(Cc3ccccc3)C1=C[C@H](C1CCCC1)O[C@@H]2C
  HIV Env fusion = -9
CC(C)NC(=O)N(C)C[C@@H]1OCCCC[C@@H](C)Oc2ccc(NC(=O)NC3CCCCC3)cc2C(=O)N([C@H](C)CO)C[C@@H]1C
  HIV Env fusion = 19[16.7 µM]
COc1ccc(NC(=O)Nc2ccc3c(c2)[C@@H]2C[C@H](CC(=O)N4CCN(C)CC4)O[C@@H](CO)[C@@H]2O3)cc1
  HIV Env fusion = 0[16.7 µM]
CN1C(=O)[C@@]2(C3=C(CCCC3=O)OC3=C2C(=O)CC(C)(C)C3)c2ccccc21
  HIV Env fusion = ?
CN(C)c1ccc2c(c1)[C@@H]1C[C@@H](CC(=O)NCc3ccc(Oc4ccccc4)cc3)O[C@H](CO)[C@@H]1O2
  HIV Env fusion = -140[16.7 µM]

Of the compounds above, 2 contain a COOH group.
C[C@H]1CN([C@@H](C)CO)C(=O)Cc2cc(N(C)C)ccc2O[C@H]1CN(C)Cc1ccc(C(=O)O)cc1
  HIV Env fusion = -19[16.7 µM]
COc1ccc(C#Cc2cccc(-c3nc(C(=O)O)cc4c3[C@@H](CCO)N(S(=O)C(C)(C)C)C4)c2)cc1OC (stereo partly specified)
  HIV Env fusion = 10[16.7 µM]

Remaining list, next part
O=C(NCc1ccccc1)[C@@H]1CCCN1C(=O)[C@H]1CCCN1C(=O)c1c(F)cccc1F
  HIV Env fusion = 17
CO[C@@H]1CC[C@@H]2CCN(C)C(=O)[C@H](C)[C@H](OC)CN(C)C(=O)c3cccc(C#N)c3OC[C@@H]1O2
  HIV Env fusion = 13[16.7 µM]
CO[C@@H]1CN(C)C(=O)c2cc(NC(=O)C3CC3)ccc2OC[C@@H](C)N(Cc2cncnc2)C[C@H]1C
  HIV Env fusion = 6[16.7 µM]
C[C@H](O)[C@@H]1C(=O)N2CCc3c([nH]c4c(-c5ccccc5)cccc34)[C@@H]2C[C@@H]1N(C)C(=O)c1ccco1
  HIV Env fusion = -34
COCC(=O)N1CC2(CN(Cc3ccc(OC)cc3)C2)c2c([nH]c3cc(OC)ccc23)[C@H]1CO
  HIV Env fusion = -3[16.7 µM]
CCCCCCCCN1C(=O)[C@@H](CC(=O)NCC2CCCCC2)C[C@@]2(C(=O)OC)C1=C[C@H](C1CCCC1)O[C@@H]2C
  HIV Env fusion = -1
CN1C(=O)[C@@]2(C3=C(CCCC3=O)OC3=C2C(=O)OC2(CCCCC2)C3)c2ccccc21
  HIV Env fusion = 3
CO[C@@H]1CN(C)C(=O)c2cc(NC(=O)NC(C)C)ccc2OC[C@@H](C)N(Cc2cncnc2)C[C@@H]1C
  HIV Env fusion = -10[16.7 µM]
C[C@@H]1CN([C@H](C)CO)C(=O)c2cc(NS(C)(=O)=O)ccc2O[C@@H]1CN(C)C(=O)Nc1cccc2ccccc12
  HIV Env fusion = -12[16.7 µM]
COc1ccc(S(=O)(=O)Nc2ccc3c(c2)[C@@H]2C[C@H](CC(=O)N(C)C)O[C@@H](CO)[C@@H]2O3)cc1
  HIV Env fusion = 8[16.7 µM]
CCc1c(-c2ccccc2)ncn1CCc1ccccc1OC
  HIV Env fusion = -16
CCCNC(=O)N1CC2(CCN(C(=O)c3ccncc3)CC2)c2c([nH]c3cc(OC)ccc23)[C@H]1CO
  HIV Env fusion = -7[16.7 µM]
C[C@H](CO)N1C[C@H](C)[C@@H](CN(C)C(=O)c2ccccc2)OCCCC[C@H](C)Oc2ccc(NC(=O)CCCN(C)C)cc2C1=O
  HIV Env fusion = 6[16.7 µM]
Cc1ccccc1S(=O)(=O)NCC[C@H]1CC[C@@H](NS(=O)(=O)c2ccccc2C)[C@@H](CO)O1
  HIV Env fusion = -18[16.7 µM]
CO[C@H]1CN(C)C(=O)c2cc(NC(=O)NC(C)C)ccc2OC[C@@H](C)N(Cc2ccccc2)C[C@@H]1C
  HIV Env fusion = 12[16.7 µM]

CCCC(=O)Nc1ccc2c(c1)OC[C@H](C)N(Cc1ccc(F)cc1)C[C@@H](C)[C@H](OC)CN(C)C2=O
  HIV Env fusion = -13[16.7 µM]
CNC[C@H]1Oc2ccc(NC(=O)Nc3c(C)noc3C)cc2C(=O)N([C@@H](C)CO)C[C@@H]1C
  HIV Env fusion = -12[16.7 µM]
C[C@H](CO)N1C[C@H](C)[C@@H](CN(C)C(=O)c2cccc(F)c2)Oc2cc(C#CC3CCCC3)ccc2S1(=O)=O
  HIV Env fusion = 5[16.7 µM]
C[C@H]1CN([C@@H](C)CO)C(=O)c2cc(NC(=O)CCCN(C)C)ccc2O[C@H]1CN(C)Cc1ccc(C(=O)O)cc1
  HIV Env fusion = 10[16.7 µM]
C[C@@H]1CN([C@@H](C)CO)C(=O)Cc2cc(NC(=O)Cc3cn(C)c4ccccc34)ccc2O[C@H]1CN(C)S(=O)(=O)c1ccc(Cl)cc1
  HIV Env fusion = 8[16.7 µM]
COc1ccccc1C(=O)Nc1ccc2c(c1)C(=O)N(C)C[C@@H](OC)[C@H](C)CN(C)[C@@H](C)CO2
  HIV Env fusion = 2[16.7 µM]
COc1cccc(C#Cc2ccc([C@H]3[C@@H](CO)N(C(=O)C4CCCC4)[C@H]3C#N)cc2)c1
  HIV Env fusion = 69*[16.7 µM]
O=C(NCc1ccccc1)C(c1ccco1)N1CCN(CCN2CCOCC2)CC1 (stereo unspecified)
  HIV Env fusion = -28
CCOC(=O)C1=CCC(c2ccc([N+](=O)[O-])cc2)N(S(=O)(=O)c2ccc(C)cc2)C1 (stereo unspecified)
  HIV Env fusion = -48
CO[C@H]1CC[C@H]2CCOc3c(C#N)cccc3C(=O)N(C)C[C@@H](C)C(=O)N(C)C[C@@H]1O2
  HIV Env fusion = 4[16.7 µM]
O=C(C[C@H]1C[C@H]2c3cc(NC(=O)c4cccnc4)ccc3O[C@H]2[C@H](CO)O1)NCC(F)(F)F
  HIV Env fusion = -7[16.7 µM]
CC(C)(C)[S@@](=O)N1Cc2cc(C(=O)N3CCc4ccccc4C3)nc(-c3cccc(-c4cccnc4)c3)c2[C@H]1CCO
  HIV Env fusion = -16[16.7 µM]
CC(C)NC(=O)N(C)C[C@H]1Oc2ncc(C#CC3CC3)cc2C(=O)N([C@@H](C)CO)C[C@@H]1C
  HIV Env fusion = 2[16.7 µM]
C[C@H](CO)N1C[C@H](C)[C@@H](CN(C)Cc2ccccc2C(=O)O)Oc2cc(-c3ccc(F)cc3)ccc2S1(=O)=O
  HIV Env fusion = -7[16.7 µM]
CN(C)C(=O)[C@]1(Cc2ccccc2N=[N+]=[N-])N=C(c2ccc(OCCCO)cc2)O[C@@H]1c1ccccc1
  HIV Env fusion = 27[16.7 µM]

CC=Cc1ccc2n(c1=O)C[C@@H]1[C@@H](CO)[C@H](C(=O)NCc3ccc(F)cc3)N(Cc3cncnc3)[C@H]21 (mixture of isomers)
  HIV Env fusion = 14[16.7 µM]
CO[C@@H]1CN(C)C(=O)c2ccc(NS(=O)(=O)CC(F)(F)F)cc2OC[C@H](C)N(C)C[C@@H]1C
  HIV Env fusion = 9[16.7 µM]
COC(=O)[C@]12C[C@H](CC(=O)NCc3ccc(OC)c(OC)c3)C(=O)N(CCc3ccc(OC)c(OC)c3)C1=C[C@H](C(C)(C)C)O[C@@H]2C
  HIV Env fusion = 58*
Cc1noc(C)c1S(=O)(=O)N(C)C[C@H]1OCc2ccccc2-c2c(n(C)c3ccccc23)C(=O)N([C@@H](C)CO)C[C@H]1C
  HIV Env fusion = 5[16.7 µM]
C[C@@H]1CN(S(=O)(=O)C(C)(C)C)[C@H](CCO)/C1=C\CCO
  HIV Env fusion = -10
COc1ccc(S(=O)(=O)Nc2cccc3c2O[C@@H](CN(C)CC2CCCCC2)[C@H](C)CN([C@H](C)CO)C3=O)cc1
  HIV Env fusion = -17[16.7 µM]
C[C@H](O)[C@@H]1CN2CCc3ccc(-c4ccc5c(c4)OCO5)cc3[C@@H]2C[C@@H]1N(C)C(=O)C1CCCCC1
  HIV Env fusion = -37
O=C(C[C@H]1C[C@@H]2c3cc(NC(=O)C4CCOCC4)ccc3O[C@@H]2[C@H](CO)O1)NCc1cccnc1
  HIV Env fusion = 8[16.7 µM]
